Measles inh: inhibitors of measles virus growth in infected cells; infected Vero cells, GFP fluorescence, 64 h; active compounds read low; z-score (no concentration beside the values); 33,000 compounds, 0.1% hits;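 active means z-score under -3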;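 further: score is relative to mean and SD of the compound wells of a plate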
The depositor's hits bear a star.

canonical_smiles,Measles inh
O=C(CCOc1ccccc1)NCc1ccccc1,1.2
CC(=O)N1CCc2cc(S(=O)(=O)NC(CC(C)C)C(=O)Nc3ccc4c(c3)OCCO4)ccc21 (centres undefined),-0.27
Cc1cccc(N2CCN(C(=O)C(Cc3ccccc3)NS(=O)(=O)c3ccc(Br)s3)CC2)c1C (centres undefined),1.1
COc1ccccc1Nc1ncc(C(=O)NCCC2=CCCCC2)c2ccccc12,1.9
CCOC(=O)c1c(N)sc2c1CCC(C)C2 (centres undefined),-0.17
CCc1cccc(NC(=O)CS(=O)(=O)c2cccc3nsnc23)c1,0.55
CCc1nnc(NS(=O)(=O)c2ccc(N=Cc3cc(Br)ccc3O)cc2)s1,-0.41
Cc1ccc(C)c(NC(=O)c2cnn3c(C)cc(C)nc23)c1,-0.23

The listing continues:
canonical_smiles,Measles inh
Cc1c(N)cc[n+](CC(=O)c2ccccc2)c1C,0.48
Cc1cc(Cl)c(C(=O)Nc2ccc(F)cc2)c(Cl)n1,-1.5
CC(C)CNC(=O)c1cc(-c2ccccc2)nc2ccccc12,0.66
CSc1nnc2c(n1)OC(c1cccc(Oc3ccccc3)c1)N(C(C)=O)c1ccccc1-2 (centres undefined),-1.8
O=C(CSc1oc(-c2ccccc2)nc1S(=O)(=O)c1ccc(Br)cc1)c1ccccc1,-0.52
CC(=O)C(C)n1c(N2CCCCCC2)nc2c1c(=O)n(C)c(=O)n2C (centres undefined),-1.1
CN(CC(=O)NC1CCCc2ccccc21)S(=O)(=O)c1ccc(Br)s1 (centres undefined),-0.71
CC(C)c1ccc(NC2(C#N)C(=O)Nc3ccccc32)cc1 (centres undefined),-0.48

New compounds follow.
canonical_smiles,Measles inh
Cc1ccc(-c2noc(C3CCCCC3)n2)cc1,0.48
CCOc1ccccc1NC(=O)CNS(=O)(=O)c1cccc2nonc12,-0.51
CCc1ccc(C(C)NC(=O)c2cncc(Br)c2)cc1 (centres undefined),0.84
O=c1c2cn[nH]c2nc(SCc2ccccc2F)n1-c1ccc(Oc2ccccc2)cc1,0.32
CC(Cl)=CCSc1nc2c(c(=O)[nH]c(=O)n2C)n1C(C)C,-0.3
COc1cccc(CNC(=O)CCCn2c(=S)[nH]c3ccsc3c2=O)c1,1.1
CCOc1ccc(NC(=O)CSc2nc3c(cnn3-c3ccc(F)cc3)c(=O)[nH]2)cc1,0.28
O=C(Nc1ccc2c(c1)OCO2)N1CCOCC1,-0.17

Next structures.
canonical_smiles,Measles inh
COc1ccc2c(C)nc(N=C(NC(C)=O)NC(C)=O)nc2c1,0.05
COC(=O)c1ccc(NC(=O)C23CC4CC(C2)CC(c2ccc(C)cc2)(C4)C3)cc1,0.11
COc1ccc(Br)cc1C1C(C(=O)OCC(C)C)=C(C)N=C2SCCC(=O)N21 (centres undefined),-0.49
CCCCCC(=O)Oc1cccc(N2C(=O)C3CCCCC3C2=O)c1 (centres undefined),-0.05
CCc1ccc(C2C=C(c3ccc(Cl)cc3)Nc3ncnn32)cc1 (centres undefined),-0.04
COCCN1C(=O)c2ccccc2C(C(=O)N2CCN(c3cc(Cl)ccc3C)CC2)C1c1cn(C)c2ccccc12 (centres undefined),0.37
CCOC(=O)c1cccc(NC(=O)C2CCN(S(=O)(=O)c3c(C)noc3C)CC2)c1,0.47
COc1ccc(Cn2c(=S)[nH]c3cc(C(=O)NCc4ccc(Cl)cc4)ccc3c2=O)cc1,-1.3

Remaining list, next part:
canonical_smiles,Measles inh
CC(C)CNc1ncnc2nc[nH]c12,0.23
O=C(COc1cccc(Br)c1)OCCN1C(=O)c2ccccc2C1=O,0.32
O=C(Nc1ccccc1O)c1cc(C(=O)Nc2ccccc2O)cc(N2C(=O)c3ccccc3C2=O)c1,-0.26
CC1CN(CCO)Cc2ccc(Cl)cc21 (centres undefined),0.13
COC(=O)c1ccc(COc2ccc3c(=O)c(-c4ccc(C(=O)OC)o4)c(C)oc3c2)o1,1.8
CCn1c(C)c2cnc3nn(-c4ccccc4)c(=O)c-3cc2c1C,0.1
Cc1sc2ncnc(Sc3nnc4sc5ccccc5n34)c2c1C,-1
CN(C(=O)CCN1C(=O)COc2ccccc21)C1CCCCC1,1.1

Next structures.
canonical_smiles,Measles inh
COC(=O)c1ccc(C(=O)Nc2ccc(C(=O)OC)cc2[N+](=O)[O-])cc1,0.05
COc1cccc(CN2CCN(C(=O)c3cccc(OC)c3OC)CC2)c1OC,0.05
Cc1cccc(C(=O)N2N=C(C(F)(F)F)CC2(O)C(C)(C)C)c1 (centres undefined),-1.8
CCOC(=O)c1ccc(N2C(=O)c3ccccc3NC2c2ccc(Cl)cc2)cc1 (centres undefined),-0.76
COc1cccc(-n2c(=S)sc3c(=O)n(-c4ccccc4C)c(SCC(=O)NCc4ccco4)nc32)c1,1.3
O=C(NCc1cccs1)C1CCN(S(=O)(=O)c2cnc[nH]2)CC1,0.53
COc1ccc(Nc2nc3c([nH]2)c(=O)[nH]c(=O)n3C)cc1,-0.47
COc1ccc2oc(=O)c(C(=O)Nc3cc(C(F)(F)F)ccc3Cl)cc2c1,-0.85

Additional structures.
canonical_smiles,Measles inh
Cc1ccc(OCc2nc(-c3cccc([N+](=O)[O-])c3)no2)c(C)c1,0.31
CC(=O)c1cccc(NC(=O)c2cc3c(=O)n4ccccc4nc3s2)c1,-1.1
O=C(OCCOCCN=C1NS(=O)(=O)c2ccccc21)c1ccc(F)cc1,0.66
O=C(CNS(=O)(=O)c1ccc(Br)s1)N1CCC(N2CCCCC2)CC1,0.64
CCCCCCOC(=O)C1=C(C)NC(=O)NC1c1ccc(Br)cc1 (centres undefined),-0.95
CC(=O)Nc1ccc(Cl)c(-c2nc3ncccc3o2)c1,0.96
CCOC(=O)C1CCN(C(=O)c2c[nH]c3ccc(S(=O)(=O)N(C)c4ccc(Cl)cc4)cc3c2=O)CC1,-0.65
CCOC(=O)c1cc2c(=O)n3ccccc3nc2n(CC2CCCO2)c1=NC(=O)c1ccc(C(F)(F)F)cc1 (centres undefined),-0.4

Two of these compounds in a different format:
Molecule: CCc1ccc(C2C=C(c3ccc(Cl)cc3)Nc3ncnn32)cc1 (centres undefined)
  Measles inh: -0.04
Molecule: COCCN1C(=O)c2ccccc2C(C(=O)N2CCN(c3cc(Cl)ccc3C)CC2)C1c1cn(C)c2ccccc12 (centres undefined)
  Measles inh: 0.37

More structures.
canonical_smiles,Measles inh
Cc1cc(C)cc(OCC(=O)NCCCN2CCOCC2)c1,-0.1
COc1ccc(CN2C(=O)CC(C(=O)Nc3ccccc3OC)SC2=Nc2ccc(F)cc2)cc1 (centres undefined),1.5
CC(=O)N1CCc2cc(Br)cc(S(=O)(=O)CCC(=O)N3CCN(c4cccc(C)c4C)CC3)c21,0.15
CCCCCn1c(=O)[nH]c2cc(C(=O)N3CCN(c4cc(Cl)ccc4C)CC3)ccc2c1=O,-0.57
CCC(C)(NC(=O)c1ccc(=O)[nH]c1)C(=O)NC1CCCC1 (centres undefined),-0.13
COc1ccc(-c2cc(C(=O)OC(C)C)c3cc(Cl)ccc3n2)cc1,0.25
CCOc1ccc(NC(=O)CC2SC(=Nc3ccccc3)N(c3ccccc3)C2=O)cc1 (centres undefined),0.52
Cc1ccc(C(=O)CCC(=O)OCC(=O)Nc2ccc(Cl)cc2C)cc1,3.1

(more compounds)
canonical_smiles,Measles inh
CC(C)NC(=O)c1nn2c(C(F)(F)F)cc(-c3ccc(Br)cc3)nc2c1Br,-0.56
CCOC(=O)c1cnc2c(OC)cccc2c1Nc1ccc(C(C)=O)cc1,-0.66
O=C(CSc1nc2ccccc2s1)NCCCN1CCOCC1,-0.03
Cc1ccc(N2CCN(c3ccccc3)CC2)nn1,-1
CCOCc1cnc(C)nc1NCC(=O)c1c(C)[nH]c2cc(C)ccc12,-1.5
CC(C)(C)OC(=O)CSc1nc2c(c(-c3cccs3)c1C#N)CCC2,-0.07
Cn1cc(C(=O)NCCc2ccc(Cl)cc2)c2c3ccccc3n(C)c2c1=O,-1.7
COc1cccc(-c2nnc(-c3ccc([N+](=O)[O-])cc3)o2)c1,-0.07

Next part:
canonical_smiles,Measles inh
CCOC(=O)c1c(NC(=O)c2ccc(Cl)cc2)sc2c1CCC2,0.25
CCN1C=C(C(=O)OC)C(c2cc(OC)c(OC)c(OC)c2)C(C(=O)OC)=C1,-1.3
Cc1ccc(OC(=O)CCC(=O)Nc2ccc(S(N)(=O)=O)cc2)cc1,0.1
Cc1cc(Oc2coc3cc(OC(C)C(=O)OCC(C)C)ccc3c2=O)cc(C)c1Cl (centres undefined),1.1
O=C(Nc1nc2ccccc2s1)c1ccc(F)cc1,0.68
CCCCSc1nnc2c(n1)OC(c1cccnc1)Nc1ccc(Br)cc1-2 (centres undefined),0.72
Cc1nnc(NC(=O)c2ccc(C(C)(C)C)cc2)s1,0
NC(=O)c1c(NC(=O)COc2cccc(Br)c2)sc2c1CCCC2,-0.28

Continued:
Compound,Measles inh
COc1cccc(CNC(=O)CCC2Nc3c4ccccc4nc(=S)n3C2=O)c1 (centres undefined),-0.23
COC(=O)c1ccc(CSc2nc3c(cnn3-c3ccc(C)cc3)c(=O)[nH]2)o1,-0.35
COc1cc(OC)cc(C(=O)Nc2ccccc2-c2nc3ccccc3[nH]2)c1,-0.19
Cc1cc(C)cc(-n2c(=O)c3sccc3n(CC(=O)Nc3ccc(C)cc3Cl)c2=O)c1,-1.1
CCC1CCCCN1C(=O)c1cc2c(=O)n3ccccc3nc2s1 (centres undefined),0.97
COc1ccc2nc(SCC(=O)Nc3cccc(NC(C)=O)c3)[nH]c2c1,0.19
CCN(CC)CC(C)CNC(=O)CN1C(=O)COc2ccccc21 (centres undefined),-1.4
O=C1CC(c2ccccc2)CC2=C1C(c1ccccn1)Nc1ccccc1N2 (centres undefined),-0.45
CCOc1ccc(C2C(=O)N(C3CCCCCC3)CC(=O)N2CCc2ccccc2)cc1OC (centres undefined),-0.53
CC(C)(C)NC1=CC(=O)OC12CCCCC2,-0.34
CC1=C(C(=O)N2CCCCC2)C(c2ccccc2OC(F)F)n2c(nc3ccccc32)N1 (centres undefined),-1
CCc1ccccc1N1C(=O)C2C(c3ccccc3Cl)OC3(C(=O)c4ccccc4C3=O)C2C1=O (centres undefined),0.12

Quoted from the entries so far, 3 compounds:
Compound,Measles inh
CCC1CCCCN1C(=O)c1cc2c(=O)n3ccccc3nc2s1 (centres undefined),0.97
COc1ccc2nc(SCC(=O)Nc3cccc(NC(C)=O)c3)[nH]c2c1,0.19
CCN(CC)CC(C)CNC(=O)CN1C(=O)COc2ccccc21 (centres undefined),-1.4

Continued.
Compound,Measles inh
CCOC(=O)c1cnc2cc(C(F)(F)F)ccc2c1Nc1cc(C)c(Cl)cc1OC,0.52
CCC(=O)Nc1cccc(-c2cn3ccsc3n2)c1,-0.99
CC1=C(C(=O)Nc2ccc(C)cn2)C(c2ccccc2Cl)C2=C(CC(C)(C)CC2=O)N1 (centres undefined),0.3
Cc1ccc(-c2csc3nc(-c4cccc(Br)c4)oc(=O)c23)cc1,-1.8
COc1cccc(C2C(C(=O)O)c3ccccc3C(=O)N2C)c1 (centres undefined),-1.2
COC(=O)C1=CN(c2cccc(C(F)(F)F)c2)C=C(C(=O)OC)C1c1ccccc1Cl,-0.74
COCCNS(=O)(=O)c1cccc2nsnc12,-1.2
CCc1nnc(NC(=O)c2cc([N+](=O)[O-])ccc2Cl)s1,-0.45
COc1ccc(Cl)cc1NC(=O)CCS(=O)(=O)c1cc(Br)cc2c1N(C(C)=O)CC2,0.14
COc1ccc(OC)c(NC(=O)c2cc(S(=O)(=O)NCc3ccccc3Cl)ccc2F)c1,2.4
CCC(=O)N1CCc2cc(Br)cc(S(=O)(=O)Nc3cccnc3)c21,-0.81
COc1ccccc1N1CCN(C(=O)c2ccc(Cn3c(=S)[nH]c4cc5c(cc4c3=O)OCO5)cc2)CC1,0.63

Continuation:
Compound,Measles inh
CC(C)CCNS(=O)(=O)c1ccc2c(c1)CCN2C(=O)C1CCC1,1.9
C#CCOc1ccc2c(c1)c(C(=O)OCC)c(C)n2-c1ccc(OCC)cc1,0.07
CCC(=O)Oc1c(Br)cc(C2Oc3nc(SC)nnc3-c3ccccc3N2C(=O)CC)cc1OC (centres undefined),0.68
Cc1ccc(-c2nc3sccn3c2Nc2ccc3c(c2)OCCO3)cc1,-2
Cc1nc2c(ccc3ccccc32)c(C)c1C,-2.3
O=C(CN1CCN(S(=O)(=O)c2ccc(Cl)cc2)CC1)Nc1cccc(C(F)(F)F)c1,-0.46
COCCn1c(=S)[nH]c2cc(C(=O)NCCc3ccc(Cl)cc3)ccc2c1=O,-0.43
CCCS(=O)(=O)N1CCCC(C(=O)NCc2ccccc2Cl)C1 (centres undefined),-0.25
COc1cccc(CNC(=O)c2cc(-c3cccnc3)nc3ccccc23)c1,-0.85
CCOC(=O)c1sc(NC(=O)c2ccc([N+](=O)[O-])c(C)c2)c(C(=O)OCC)c1C,0.41
CCn1c(C(O)c2cccc3ccccc23)nc2ccccc21 (centres undefined),-1.2
Cc1c(Cl)cccc1NC(=O)c1cc(S(=O)(=O)N2CCCC2)ccc1F,-0.59

Next part.
Compound,Measles inh
O=C(NCCC1=CCCCC1)C1CCCN(S(=O)(=O)c2cccs2)C1 (centres undefined),1.7
CC(=O)NC1=C(N2CCN(C(=O)c3ccco3)CC2)C(=O)c2ccccc2C1=O,-1.4
Cc1cccc2nc(=S)n(C(=O)c3ccc(Cl)cc3)n12,0.83
O=C(NC1CC1)C1CC(=O)N(CCc2ccccc2)C1 (centres undefined),-0.04
CC[n+]1c(C)c2ccccc2c2ccccc21,-0.31
O=C1NC(=Nc2cccc([N+](=O)[O-])c2)SC1(CO)CO,4.8
O=C(CCCCCN1C(=O)c2cccc([N+](=O)[O-])c2C1=O)NCc1ccccc1,1.8
CCc1ccccc1Nc1nc(-c2c(C)nc3ccccn23)cs1,-0.81
Cc1c(C)c2ccc(OCC(N)=O)c(C)c2oc1=O,-0.05
COC(=O)c1ccc(N2C(=O)CC(NCCc3ccc(S(N)(=O)=O)cc3)C2=O)cc1 (centres undefined),-1.5

5 compounds already listed, arranged by heavy-atom count, smallest number first:
Compound,Measles inh
CC(C)(C)NC1=CC(=O)OC12CCCCC2,-0.34
CCOC(=O)c1c(NC(=O)c2ccc(Cl)cc2)sc2c1CCC2,0.25
Cc1sc2ncnc(Sc3nnc4sc5ccccc5n34)c2c1C,-1
Cc1c(Cl)cccc1NC(=O)c1cc(S(=O)(=O)N2CCCC2)ccc1F,-0.59
CCCCCn1c(=O)[nH]c2cc(C(=O)N3CCN(c4cc(Cl)ccc4C)CC3)ccc2c1=O,-0.57

Source: PubChem

This is a subset. The share of hits here may be higher or lower than overall.
